# RecA intein inh = Mtb RecA intein splicing inhibition; P9WHJ3; cell-free RecA intein splicing, fluorescence; inhibition, %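 (about 9 µM by stock and volumes)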; 290,000 compounds, 0.75% hits; AID 2221; in the data active means inhibition above about 30%; inconclusive means no clear call, values can overlap the other calls;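 further: 0% = vehicle wells and 100% = reference inhibitor control wells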
# Target sequence (P9WHJ3 whole entry, looked up): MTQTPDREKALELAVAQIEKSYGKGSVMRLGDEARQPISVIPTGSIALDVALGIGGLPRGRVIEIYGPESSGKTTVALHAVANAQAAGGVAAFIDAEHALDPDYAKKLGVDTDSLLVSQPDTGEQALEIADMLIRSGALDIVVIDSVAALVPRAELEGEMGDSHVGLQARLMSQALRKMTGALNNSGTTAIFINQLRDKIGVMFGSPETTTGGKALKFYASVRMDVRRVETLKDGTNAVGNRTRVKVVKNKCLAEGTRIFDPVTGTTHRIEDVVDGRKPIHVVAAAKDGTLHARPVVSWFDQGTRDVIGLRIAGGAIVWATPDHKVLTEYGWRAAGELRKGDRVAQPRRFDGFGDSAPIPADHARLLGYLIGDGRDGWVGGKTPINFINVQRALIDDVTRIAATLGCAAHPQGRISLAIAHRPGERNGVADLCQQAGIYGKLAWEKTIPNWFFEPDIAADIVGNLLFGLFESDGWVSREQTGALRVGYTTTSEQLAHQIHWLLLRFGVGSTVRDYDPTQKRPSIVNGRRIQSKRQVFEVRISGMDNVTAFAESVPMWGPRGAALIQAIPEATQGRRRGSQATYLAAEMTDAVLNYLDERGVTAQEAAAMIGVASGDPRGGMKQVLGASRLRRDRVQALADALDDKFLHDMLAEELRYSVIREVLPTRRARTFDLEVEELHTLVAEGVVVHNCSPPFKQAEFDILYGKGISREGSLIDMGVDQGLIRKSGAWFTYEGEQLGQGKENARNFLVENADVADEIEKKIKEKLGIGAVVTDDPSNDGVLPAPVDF
# Mtb growth = M. tuberculosis H37Rv growth inhibitors, H37Rv strain (AID 1626) | 220,000 compounds, 0.95% hits | M. tuberculosis H37Rv growth inhibition; higher % means a stronger effect | inhibition, % at 10 µM, or IC50 in µM where a hit was titrated;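 active means confirmed in a dose series; inconclusive means inhibition above 80% but not taken into the dose series; inactive means below 80% or under 30% at every dose of the series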;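 further: bacteria incubated seven days before Alamar blue readout; 0% = bacteria only wells and 100% = bacteria with antibiotic wells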
# YopH PTP inh = blocks Yersinia enterocolitica YopH tyrosine phosphatase; inhibition, %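 (about 10 µM by stock and volumes)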; fluorescence Ex485/Em525; 140,000 compounds, 0.16% hits;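 active means inhibition of 50% or more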;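 further: controls were vehicle for no effect and minimum signal wells for full effect; inactives centre near -20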
# Mtb betalactam = beta-lactam sensitization of Mtb H37Rv | M. tuberculosis H37Rv growth with meropenem, percent inhibition; hits of this screen are not shown here | inhibition, % at 25 µM | 330,000 compounds, 0.27% hits | AID 434955;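 active means about 74% or more and at least 40 points above the plate without the antibiotic, then above 30% in a dose series; inconclusive means first-round hits that could not be retested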;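 further: growth measured after seven days incubation then overnight dye step; 0% = bacteria only wells and 100% = bacteria with antibiotic; twin plates without the antibiotic show which effects depend on it; some results filed as inactive read as strong as hits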
# Arbovirus inh = blocks arbovirus infection; 200,000 compounds, 0.37% hits; AID 1251; arbovirus infection cell-based antiviral screen; inhibition, % at 10 µM;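 active means inhibition from about 30%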;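 further: bluetongue infection of BSR cells; cell survival read as ATP light after 72 h; 0% = infected wells without compound and 100% = uninfected wells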
# * hit, by the source's call; ? = inconclusive; / = no result given; & = joins results of further samples.
1: O=c1[nH]cnc2c1C(c1ccc(Cl)cc1)c1c(nc[nH]c1=O)O2
2: Cc1ccc(S(=O)(=O)CCC(=O)OCC(=O)c2c(C)[nH]c3ccccc23)cc1
3: CCN(CC)CCOc1ccc2nc(N(C)C)sc2c1
4: CCC(=O)c1ccc(OC(=O)c2cccs2)cc1
5: CN(C)CCCNc1ncnc2oc(-c3ccccc3)c(-c3ccccc3)c12
6: COc1ccc(CCC(=O)N2CCCC(Nc3ccc(OC)cc3)C2)cc1 (stereo not given)
7: Clc1ccc(-c2nnc(Sc3nc4ccccc4o3)c3ccccc23)cc1
8: C=CCNC(=S)N/N=C(\C)c1cccc(OC)c1
entry no.	1	2	3	4	5	6	7	8
RecA intein inh	-0.2	0.4	-0.9	32*	0.6	0.8	57*	-0.9
Mtb growth	/	5%	5%	8%	/	/	-5%	64%
YopH PTP inh	/	-30	-15	-30	/	/	-20	-20
Mtb betalactam	-7	4	-1	51	-8	7	-1	92
Arbovirus inh	/	10	-4	-1	/	/	-30	-6

9: CC(C)CN(C(=O)c1cc(Cl)nc2ccccc12)c1c(N)n(Cc2ccccc2)c(=O)[nH]c1=O
10: COC(=O)C1CCCCN1C(=O)c1cc(COc2cccc3cccnc23)on1 (stereo not given)
11: CN(C)CCCN(C(=O)COc1ccc(Cl)cc1)c1nc2cc3c(cc2s1)OCO3
12: CN(C)/C=C/C(=O)c1ccc2noc(-c3cccc(F)c3)c2c1
13: Cc1cc(C)c(S(=O)(=O)Nc2nnc(CC(C)C)s2)c(C)c1
14: CCOC(=O)N1CCN(S(=O)(=O)c2ccc(OC)cc2)CC1
15: COc1ccccc1CNC(=O)CCCn1nc(C)c2c(C)n(-c3ccc(C)cc3)nc2c1=O
16: COc1ccc(OC)c(NC(=O)COC(=O)/C=C/c2ccc(Cl)cc2)c1
entry no.	9	10	11	12	13	14	15	16
RecA intein inh	2.2	0.3	-3.7	8.3	1.7	-1.6	-2.8	-1.4
Mtb growth	/	/	/	/	/	/	/	5%
YopH PTP inh	/	/	/	/	/	/	/	-31
Mtb betalactam	-4	-2	-1	9	-11	-6	-9	?
Arbovirus inh	/	/	/	/	/	/	/	6

17: Cc1cc2ccccc2c(=O)n1CC(=O)NCC1COc2ccccc2O1 (stereo not given)
18: Cc1cccc(N=N/C(=C\O)C(=O)c2cccs2)c1
19: CCOC(=O)c1c(S(=O)(=O)NCC(=O)Nc2ccccc2)c(C)n(C)c1C
20: COc1ccccc1Nc1nc(Cl)nc(Nc2ccccc2OC)n1
21: O=C(CN1C(=O)C(=O)N(Cc2ccco2)C1=O)c1c[nH]c2ccccc12
22: Cc1occc1-c1nnc(SCC(=O)Nc2ccccc2N2CCCCC2)n1C
23: CCN(CC)CCNC(=O)C1(O)c2cc(Br)ccc2NC(=O)N1c1ccccc1 (stereo not given)
24: CC(CNC(=O)CN1C(=O)COc2ccc(S(=O)(=O)N3CCCCC3)cc21)c1ccccc1 (stereo not given)
entry no.	17	18	19	20	21	22	23	24
RecA intein inh	/	1.7	-4.1	-1.0	0.3	-1.8	1.8	1.8
Mtb growth	5%	3%	/	-7%	-5%	6%	/	/
YopH PTP inh	-20	/	/	/	/	-33	/	/
Mtb betalactam	1	7	-1	-1	-2	3	-6	-1
Arbovirus inh	-3	-28	/	-2	/	9	/	/

# Only RecA intein inh, Mtb growth and YopH PTP inh, for 4 of the compounds above:
entry | canonical_smiles | RecA intein inh | Mtb growth | YopH PTP inh
19 | CCOC(=O)c1c(S(=O)(=O)NCC(=O)Nc2ccccc2)c(C)n(C)c1C | -4.1 | / | /
20 | COc1ccccc1Nc1nc(Cl)nc(Nc2ccccc2OC)n1 | -1.0 | -7% | /
21 | O=C(CN1C(=O)C(=O)N(Cc2ccco2)C1=O)c1c[nH]c2ccccc12 | 0.3 | -5% | /
22 | Cc1occc1-c1nnc(SCC(=O)Nc2ccccc2N2CCCCC2)n1C | -1.8 | 6% | -33

# Additional results
25: CCN1CCN(C(=O)c2ccc(Cl)c(S(=O)(=O)N3CCCCC3)c2)CC1
26: CCN(CC)S(=O)(=O)c1ccc(Cl)c(NC(=O)c2ccncc2)c1
27: O=c1c2ccccc2c(C=NCc2ccccn2)c(O)n1-c1ccccc1
28: COc1cc(OC)cc(N2C(=O)CC(N3CCC(C(=O)N4CCCCC4)CC3)C2=O)c1 (stereo not given)
29: COc1ccc(-c2nc(=S)c3c([nH]2)Oc2ccc(C)cc2C3)cc1O
30: COc1ccc(N2C(=O)CC2(C#N)c2ccc(OCc3ccccc3)cc2)cc1 (stereo not given)
31: Cc1ccccc1OCCn1cc(C=O)c2ccccc21
32: Cn1nc(Cc2cccc3ccccc23)c(C#N)c1N
entry no.	25	26	27	28	29	30	31	32
RecA intein inh	-0.4	-0.1	0.6	-1.6	-2.5	6.0	-1.2	2.1
Mtb growth	/	5%	4%	/	10%	-5%	/	13%
YopH PTP inh	/	/	-16	/	3	-17	/	/
Mtb betalactam	-23	-1	-1	0	-1	7	2	-5
Arbovirus inh	/	-5	-16	/	28	-13	/	/

33: Cc1ccc(S(=O)(=O)N2CCN(c3ccc(C(=O)N4CCOCC4)cc3[N+](=O)[O-])CC2)cc1
34: COc1ccc(-c2cc(CNC(=O)CN3CCN(C)CC3)on2)cc1
35: C=CCn1c(CCNC(=O)c2ccc(Cl)c(Cl)c2)nnc1SCCOc1ccc(OC)cc1
36: Cc1cc(O)cc(O)c1C(=O)Cc1cnn(-c2ccccc2)c1
37: Cc1ccccc1-n1c(C)cc(/C=C2\NC(=O)NC2=O)c1C
38: Cc1occc1C(=O)Nc1c(F)c(F)c(F)c(F)c1F
39: CN(C)C(=O)COC(=O)c1cccnc1Nc1ccccc1F
40: COc1ccc(C(=O)NC2CCN(C(=S)Nc3cccc(C)c3C)CC2)cc1
entry no.	33	34	35	36	37	38	39	40
RecA intein inh	-4.7	2.9	0.0	1.8	4.2	-0.5	0.1	-0.8
Mtb growth	6%	-10%	-1%	-5%	0%	1%	3%	/
YopH PTP inh	-20	-10	-16	15	3	-14	-8	-31
Mtb betalactam	?	-6	-4	?	33	-7	5	-3
Arbovirus inh	5	-1	-13	2	24	0	6	-1

# Sorted by heavy-atom count (highest first): three of the compounds above
10: COC(=O)C1CCCCN1C(=O)c1cc(COc2cccc3cccnc23)on1 (stereo not given)
17: Cc1cc2ccccc2c(=O)n1CC(=O)NCC1COc2ccccc2O1 (stereo not given)
18: Cc1cccc(N=N/C(=C\O)C(=O)c2cccs2)c1
entry no.	10	17	18
RecA intein inh	0.3	/	1.7
Mtb growth	/	5%	3%
YopH PTP inh	/	-20	/
Mtb betalactam	-2	1	7
Arbovirus inh	/	-3	-28

# The results go on.
41: O=C(Nc1nnc(/N=C/c2ccco2)s1)c1ccc(F)cc1
42: CC(C(=O)N1CCCCCC1)c1ccc([N+](=O)[O-])cc1 (stereo not given)
43: O=C(NCc1nnc(SCC(=O)N2CCCCC2)o1)c1c(F)cccc1Cl
44: Cc1ccc2nc3c(cc(C(=O)NCC4CCCO4)n3C)c(=O)n2c1 (stereo not given)
45: COc1ccc(C(=O)Nc2ccccc2C(=O)N2CCOCC2)cc1OC
46: O=C1CN(C(=O)C2CCCC2)CCN1
47: Cn1c(CC(=O)Nc2ccccc2)n[nH]c1=S
48: COc1cc(-c2ccc(=O)[nH]n2)ccc1OC(F)F
entry no.	41	42	43	44	45	46	47	48
RecA intein inh	1.9	-4.5	-9.2	/	4.4	-1.0	-1.3	-0.7
Mtb growth	-8%	-6%	/	-2%	/	-3%	-5%	-5%&-1%
YopH PTP inh	-28	/	/	-24	/	-19	/	/
Mtb betalactam	-9	3	0	/	-6	-7	-14	0
Arbovirus inh	-5	1	/	0	/	7	3	-2

49: CCOc1cc2c(cc1OCC)-n1cccc1C(c1ccccc1OC)NC2 (stereo not given)
50: CC(C)(C)SCCNC(=O)c1ccc(CN2CCc3ccccc3C2)cc1
51: CC[C@@]12C(=O)N(c3ccc(C)cc3)C(=O)N1[C@H](c1ccc(OC)cc1)[C@@H]1C(=O)N(C(C)(C)C)C(=O)[C@@H]12
52: O=C(CCCn1c(SCc2cc(=O)n3cc(Cl)ccc3n2)nc2ccccc2c1=O)NCC1CCCO1 (stereo not given)
53: CCOc1ccc(CCN2C(=O)c3ccc(C(=O)O)cc3C2=O)cc1OCC
54: COc1ccc(OC)c(NC(=O)c2cc(S(=O)(=O)N(C)C)ccc2N2CCCC2)c1
55: CCN1CCN(C/C(C)=C/c2ccccc2)CC1
56: CN(CCc1ccccn1)C(=O)c1cccnc1Oc1ccc(Cl)cc1
entry no.	49	50	51	52	53	54	55	56
RecA intein inh	7.0	1.7	2.4	2.1	0.5	0.8	-2.0	1.3
Mtb growth	/	/	/	-3%	/	/	/	-7%
YopH PTP inh	/	/	/	/	/	/	/	/
Mtb betalactam	-8	-2	-4	-2	-7	-4	-3	-1
Arbovirus inh	/	/	/	/	/	/	/	/

# Some of the entries above in another layout.
53: CCOc1ccc(CCN2C(=O)c3ccc(C(=O)O)cc3C2=O)cc1OCC
  RecA intein inh = 0.5	Mtb growth = /	YopH PTP inh = /	Mtb betalactam = -7	Arbovirus inh = /
54: COc1ccc(OC)c(NC(=O)c2cc(S(=O)(=O)N(C)C)ccc2N2CCCC2)c1
  RecA intein inh = 0.8	Mtb growth = /	YopH PTP inh = /	Mtb betalactam = -4	Arbovirus inh = /
55: CCN1CCN(C/C(C)=C/c2ccccc2)CC1
  RecA intein inh = -2.0	Mtb growth = /	YopH PTP inh = /	Mtb betalactam = -3	Arbovirus inh = /
56: CN(CCc1ccccn1)C(=O)c1cccnc1Oc1ccc(Cl)cc1
  RecA intein inh = 1.3	Mtb growth = -7%	YopH PTP inh = /	Mtb betalactam = -1	Arbovirus inh = /

# The results go on:
57: COc1ccc(-c2nnn(CC(=O)N(Cc3ccccc3Cl)C(C(=O)NCC3CCCO3)c3ccco3)n2)cc1 (stereo not given)
58: COc1cc(-c2cc(C(=O)NCc3ccco3)c3ccccc3n2)cc(OC)c1OC
59: CCC(=O)Nc1cc(=O)[nH]c2ncnn12
60: COc1cc(Cl)c(C)cc1NC(C)C(=O)Nc1cc(C(F)(F)F)ccc1N1CCOCC1 (stereo not given)
61: Cn1nc(C(=O)Nc2ccc(Br)cc2)cc1C(=O)Nc1ccc(Br)cc1
62: COc1ccc(N=Nc2cnc(C)nc2-c2ccccc2)cc1
63: CCc1cccc(NC(=O)CCCN2C(=O)C(c3ccccc3)Oc3cccnc32)c1 (stereo not given)
64: CCOC(=O)c1cc2c3ccccc3n(CC)c2nc1N
entry no.	57	58	59	60	61	62	63	64
RecA intein inh	1.6	0.2	/	12	2.2	2.7	13	-2.0
Mtb growth	-5%	/	1%	0%	/	21%	/	/
YopH PTP inh	-37	/	-31	-7	/	-27	/	-13
Mtb betalactam	2	8	4	2	2	8	1	5
Arbovirus inh	-9	/	-2	-14	/	-9	/	5

65: CCOc1ccc2nc(NS(=O)(=O)c3ccc4c(c3)n(C)c(=O)n4C)sc2c1
66: Cc1nc2cc3nc(C)sc3cc2s1
67: C=CCN1C(=S)N[C@@H]2CS(=O)(=O)C[C@@H]21
68: Cc1nn(Cc2c(Cl)cccc2Cl)c(Cl)c1/C=C/C(=O)OCC(=O)NCC(F)(F)F
69: O=C(NC1CCCC1)C(c1ccco1)N(C(=O)c1ccco1)c1ccccc1 (stereo not given)
70: CCCCCNC(=O)N[C@H](C(=O)O)C(C)C
71: COCC1CCN(C(=O)C2CCC(=O)N(CC3CCCCC3)C2)CC1 (stereo not given)
72: N#Cc1nc(COc2ccc(Cl)cc2Cl)oc1N1CCN(c2ccccc2)CC1
73: CCC1CN(C(=O)N2CCC(C(=O)Nc3ccccc3F)CC2)c2ccccc2O1 (stereo not given)
74: COC(CNC(=O)c1ccc2c(c1)nc(C)n2-c1ccc(F)c(F)c1)OC
75: N#C/C(=C/Nc1ccccc1C(=O)O)C(N)=O
entry no.	65	66	67	68	69	70	71	72	73	74	75
RecA intein inh	-1.7	2.6	-1.5	3.4	-0.1	-0.7	-9.2	4.5	0.1	0.8	-1.5
Mtb growth	/	4%	-7%	-10%	/	0%	/	8%	/	2%	3%
YopH PTP inh	-36	-48	/	10	/	-36	/	-48	/	-35	/
Mtb betalactam	3	-3	-7	-12	-2	0	4	4	10	-4	10
Arbovirus inh	4	0	/	-15	/	0	/	-9	/	5	/

# An excerpt. The share of hits here may be higher or lower than overall.
